Screens (PubChem BioAssay)
NOMO-1 viab = NOMO-1 AML cell viability reduction, primary screen, STK33 inhibitor project, CellTiter-Glo luminescence | AID 2330, 2010 | 7.5% of 37,000 active | inhibition, % (no concentration beside the values) | NOMO-1 AML viability, 72 h;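 active means most replicates above 80%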;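 further: wells of about 30 µL received 25 nL stock; 0% = median of vehicle wells and 100% = reference inhibitor level; the first replicate is given; inactives centre near 10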
* hit, by the source's call. Only part of the results is shown. The share of hits here may be higher or lower than overall.

structure | NOMO-1 viab
C[C@@H]1CN([C@H](C)CO)C(=O)c2cccc(NC(=O)C3CCCCC3)c2O[C@@H]1CN(C)Cc1ccncc1 | 2.5
C[C@@H]1CN([C@H](C)CO)C(=O)Cc2cc(NC(=O)Nc3cccc4ccccc34)ccc2O[C@@H]1CN(C)S(=O)(=O)c1ccccc1 | -21.1
C[C@H]1CN([C@@H](C)CO)C(=O)Cc2cc(NC(=O)Cc3ccccc3)ccc2O[C@@H]1CN(C)C(=O)Nc1ccc(F)cc1 | 15.7
COc1ccc(NC(=O)Nc2ccc3c(c2)CC(=O)N([C@@H](C)CO)C[C@@H](C)[C@@H](CN(C)S(=O)(=O)c2cccs2)O3)cc1 | 29.9
C[C@@H]1CCCCO[C@H](CN(C)S(=O)(=O)c2cn(C)cn2)[C@@H](C)CN([C@H](C)CO)C(=O)c2cc(NC(=O)Cc3ccccc3)ccc2O1 | -11.2
C[C@H](CO)N1C[C@H](C)[C@H](CN(C)C)Oc2ccc(NS(=O)(=O)c3ccc(Cl)cc3)cc2C1=O | -3.5
COc1ccc(NC(=O)CSc2nc3sc4c(c3c(=O)n2-c2ccccc2)CCCC4)c([N+](=O)[O-])c1 | 7.4
COc1ccc(C2C(C(=O)Nc3cc(OC)c(Cl)cc3OC)=C(C)Nc3ncnn32)c(OC)c1 (stereo unspecified) | -11.7
COc1ccc(C(=O)c2ccccc2)cc1CN1CCOCC1 | -3.9
C[C@@H]1CN([C@H](C)CO)C(=O)c2cccc(NS(=O)(=O)c3ccccc3)c2O[C@H]1CN(C)Cc1ccc(C(F)(F)F)cc1 | 3.0
COc1cc(Cl)c(C)cc1NC(=O)CSc1nnc(-c2ccncc2)n1C | -12.0
C[C@@H]1CCCCO[C@H](CN(C)C(=O)Nc2ccccc2)[C@@H](C)CN([C@H](C)CO)C(=O)c2cc(NS(=O)(=O)c3ccccc3)ccc2O1 | 21.9
Cc1ccc(S(=O)(=O)N(C)C[C@@H]2Oc3ccc(NS(=O)(=O)c4ccc(F)cc4)cc3C(=O)N([C@@H](C)CO)C[C@@H]2C)cc1 | 12.5
O=C(COc1cc(Cl)c(Cl)cc1Cl)Nc1cccnc1 | 7.8
Cc1noc(C)c1NC(=O)Nc1cccc2c1O[C@@H](CN(C)C(=O)Nc1ccc(F)cc1)[C@H](C)CN([C@H](C)CO)C2=O | -6.2
C[C@@H]1CN([C@H](C)CO)C(=O)Cc2cc(N(C)C)ccc2O[C@H]1CN(C)Cc1ccc(-c2ccccc2)cc1 | 32.3
CCOc1nc2cccc(C(=O)OC(C)OC(=O)OC3CCCCC3)c2n1Cc1ccc(-c2ccccc2-c2nn[nH]n2)cc1 (stereo unspecified) | 68.3
CNC[C@H]1Oc2ccc(NC(=O)NC(C)C)cc2C(=O)N([C@@H](C)CO)C[C@@H]1C | 3.9
COc1cccc(C(=O)Nc2sc3c(c2C(=O)NCc2cccnc2)CCCC3)c1 | 30.2
Cc1noc(C)c1NC(=O)Nc1ccc2c(c1)CC(=O)N([C@H](C)CO)C[C@@H](C)[C@@H](CN(C)Cc1ccncc1)O2 | 4.0

(cont.)
structure | NOMO-1 viab
Cc1ccc(C)c(NC(=O)Cn2nc([N+](=O)[O-])c(Br)c2C)c1 | 24.0
C[C@H]1CN([C@@H](C)CO)C(=O)c2cccc(NC(=O)C3CC3)c2O[C@H]1CN(C)C(=O)NC1CCCCC1 | -6.6
Cc1ccc(S(=O)(=O)Nc2ccc3c(c2)CC(=O)N([C@H](C)CO)C[C@H](C)[C@H](CN(C)S(=O)(=O)c2ccc(Cl)cc2)O3)cc1 | 12.3
C[C@H](CO)N1C[C@H](C)[C@H](CN(C)CC2CCCCC2)Oc2ccc(NC(=O)Nc3ccccc3)cc2CC1=O | 105.9*
C[C@@H]1CN([C@H](C)CO)C(=O)c2cc(NS(=O)(=O)c3cccs3)ccc2O[C@H]1CN(C)C(=O)Nc1ccc(C(F)(F)F)cc1 | -1.0
c1ccc(OCc2nc3ccccc3n2Cc2ccccn2)cc1 | 27.5
Cc1noc(C)c1S(=O)(=O)N(C)C[C@@H]1Oc2c(NC(=O)C3CCCCC3)cccc2C(=O)N([C@H](C)CO)C[C@@H]1C | -0.7
Nc1nnc(SCC(=O)Nc2ccccc2Br)s1 | -13.7
C[C@@H]1CN([C@@H](C)CO)C(=O)Cc2cc(NC(=O)Cn3cnnn3)ccc2O[C@@H]1CN(C)CC1CC1 | 20.9
COc1ccc(NC(=O)COc2ccccc2CO)cc1 | 17.4
O=C(NCc1cccnc1)C1COc2ccccc2O1 (stereo unspecified) | -1.5
CN(C(=O)CSc1nnc(-c2ccc(Cl)cc2)n1-c1ccccc1)c1ccccc1 | 20.6
C[C@H](CO)N1C[C@H](C)[C@H](CN(C)C(=O)Nc2ccc(F)cc2)Oc2c(NS(=O)(=O)c3ccccc3)cccc2C1=O | -5.8
Cc1sc2ncnc(NCCCN3CCOCC3)c2c1-c1ccccc1 | 18.6
COc1ccc(C(=O)Nc2ccc(Cl)cc2)cc1S(=O)(=O)Nc1ccc(Cl)cc1 | 70.1
C[C@H]1CN([C@@H](C)CO)C(=O)Cc2cc(NC(=O)Nc3ccccc3)ccc2O[C@@H]1CN(C)C | 2.9
C[C@H]1CN([C@@H](C)CO)C(=O)c2cc(N(C)C)ccc2O[C@@H]1CN(C)Cc1ccc(-c2ccccc2)cc1 | 33.2
C[C@H]1CN([C@@H](C)CO)C(=O)c2cccc(N(C)C)c2O[C@@H]1CN(C)Cc1ccccc1 | -15.8
C[C@@H]1CN([C@H](C)CO)C(=O)c2cccc(NC(=O)Nc3ccccc3)c2O[C@H]1CN(C)C(=O)Nc1ccc2c(c1)OCO2 | 18.7
C[C@@H]1CN([C@H](C)CO)C(=O)c2cc(NC(=O)c3ccncc3)ccc2O[C@@H]1CN(C)CC1CCCCC1 | -8.0

In the list so far, these contain a Cl atom:
structure | NOMO-1 viab
C[C@H](CO)N1C[C@H](C)[C@H](CN(C)C)Oc2ccc(NS(=O)(=O)c3ccc(Cl)cc3)cc2C1=O | -3.5
COc1ccc(C2C(C(=O)Nc3cc(OC)c(Cl)cc3OC)=C(C)Nc3ncnn32)c(OC)c1 (stereo unspecified) | -11.7
COc1cc(Cl)c(C)cc1NC(=O)CSc1nnc(-c2ccncc2)n1C | -12.0
O=C(COc1cc(Cl)c(Cl)cc1Cl)Nc1cccnc1 | 7.8
Cc1ccc(S(=O)(=O)Nc2ccc3c(c2)CC(=O)N([C@H](C)CO)C[C@H](C)[C@H](CN(C)S(=O)(=O)c2ccc(Cl)cc2)O3)cc1 | 12.3
CN(C(=O)CSc1nnc(-c2ccc(Cl)cc2)n1-c1ccccc1)c1ccccc1 | 20.6
COc1ccc(C(=O)Nc2ccc(Cl)cc2)cc1S(=O)(=O)Nc1ccc(Cl)cc1 | 70.1

Quoted from the listing:
O=C(NCc1cccnc1)C1COc2ccccc2O1 (stereo unspecified) @ NOMO-1 viab = -1.5
Cc1ccc(C)c(NC(=O)Cn2nc([N+](=O)[O-])c(Br)c2C)c1 @ NOMO-1 viab = 24.0

Other entries follow.
structure | NOMO-1 viab
C[C@@H]1CN([C@H](C)CO)C(=O)Cc2cc(NC(=O)Nc3ccc(F)cc3)ccc2O[C@H]1CN(C)S(=O)(=O)c1ccc(F)cc1 | 0.5
O=C(CSc1ncccc1C(=O)O)Nc1ccc(Oc2ccccc2)cc1 | 19.8
Cc1ccc(S(=O)(=O)Nc2ccc3c(c2)C(=O)N([C@H](C)CO)C[C@H](C)[C@H](CN(C)S(=O)(=O)c2ccc(Cl)cc2)O3)cc1 | 40.1
C[C@@H]1CN([C@@H](C)CO)C(=O)c2cc(NC(=O)Nc3ccc(F)cc3)ccc2O[C@H]1CN(C)S(=O)(=O)c1ccc(Cl)cc1 | 41.3
C[C@H]1CN([C@@H](C)CO)C(=O)Cc2cc(NC(=O)C3CC3)ccc2O[C@H]1CN(C)Cc1ccncc1 | 9.4
C[C@@H]1CN([C@@H](C)CO)C(=O)Cc2cc(NC(=O)Nc3cccc4ccccc34)ccc2O[C@@H]1CN(C)S(=O)(=O)c1cccs1 | 58.5
Cc1noc(C)c1NC(=O)Nc1ccc2c(c1)C(=O)N([C@@H](C)CO)C[C@@H](C)[C@@H](CN(C)S(=O)(=O)c1cccs1)O2 | 1.7
C[C@H]1CN([C@@H](C)CO)C(=O)c2cccc(NS(C)(=O)=O)c2O[C@@H]1CN(C)C(=O)Nc1ccc(C(F)(F)F)cc1 | 9.5
COc1ccc(S(=O)(=O)N(C)C[C@@H]2OCCCC[C@@H](C)Oc3ccc(NC(=O)Nc4c(C)noc4C)cc3C(=O)N([C@H](C)CO)C[C@@H]2C)cc1 | -2.3
C[C@H](CO)N1C[C@H](C)[C@H](CN(C)Cc2ccc(-c3ccccc3)cc2)Oc2ccc(NS(=O)(=O)c3cn(C)cn3)cc2C1=O | 1.0
CC(C)NC(=O)N(C)C[C@H]1Oc2ccc(NC(=O)C3CC3)cc2C(=O)N([C@@H](C)CO)C[C@H]1C | 3.7
Cc1cc(Cl)ccc1NC(=O)CNS(=O)(=O)c1ccc(Br)cc1 | -13.5
C[C@@H]1CN([C@H](C)CO)C(=O)c2cccc(NC(=O)Nc3ccc(C(F)(F)F)cc3)c2O[C@@H]1CN(C)C(=O)Nc1cccc2ccccc12 | 76.5
Cc1ccc(S(=O)(=O)Nc2cccc3c2O[C@@H](CN(C)S(=O)(=O)c2ccc(C)cc2)[C@@H](C)CN([C@@H](C)CO)C3=O)cc1 | 29.5
C[C@@H]1CN([C@@H](C)CO)C(=O)c2cc(NC(=O)CCN3CCOCC3)ccc2O[C@@H]1CN(C)S(=O)(=O)c1ccccc1 | 19.0
Cn1c(SCC(=O)Nc2ccc(Cl)cc2)nnc1-c1ccc(Cl)c(Cl)c1 | 47.7
CC(C)CCNC(=O)c1cccc2c1-c1ccccc1C2=O | 19.6
C=CCN(CC=C)CC(O)Cn1cnc2c1c(=O)n(C)c(=O)n2C (stereo unspecified) | -17.6
C[C@@H]1CN([C@H](C)CO)C(=O)c2cc(NS(C)(=O)=O)ccc2O[C@H]1CN(C)S(=O)(=O)c1ccc(Cl)cc1 | 17.8
O=C(CC1(O)C(=O)N(Cc2ccccc2)c2ccc(Cl)cc21)c1ccc2c(c1)OCCO2 (stereo unspecified) | 26.0

(further entries)
canonical_smiles	NOMO-1 viab
COc1ccc(C)cc1NC(=O)CN(c1ccc(F)c(Cl)c1)S(C)(=O)=O	-9.0
O=C(O)c1ccc(Oc2ccccc2)cc1	-9.5
C[C@@H]1CN([C@@H](C)CO)C(=O)c2cc(NC(=O)CCCN(C)C)ccc2O[C@H]1CN(C)Cc1ccc(C(F)(F)F)cc1	-10.8
CC(=O)Nc1ccc(NC(=O)C2C3CCC(C3)C2C(=O)O)cc1 (stereo unspecified)	23.8
COc1ccc(C)cc1NC(=O)c1ccc(OCC(=O)Nc2cc(Cl)ccc2Cl)cc1	22.0
C[C@H](CO)N1C[C@H](C)[C@H](CN(C)S(=O)(=O)c2cccs2)Oc2c(NC(=O)Nc3ccc(F)cc3)cccc2C1=O	45.5
CCN(CC)c1c(C#N)c(SCC(=O)c2cccs2)cc2c1CCCC2	44.8
C[C@H]1CN([C@@H](C)CO)C(=O)c2cc(NC(=O)C3CCCCC3)ccc2O[C@@H]1CN(C)C(=O)Nc1ccc(F)cc1	-2.0
Cc1noc(C)c1S(=O)(=O)Nc1ccc2c(c1)C(=O)N([C@H](C)CO)C[C@H](C)[C@@H](CN(C)C(=O)c1ccncc1)OCCCC[C@@H](C)O2	-9.1
C[C@@H]1CN([C@H](C)CO)C(=O)c2cccc(NS(=O)(=O)c3cn(C)cn3)c2O[C@H]1CN(C)CC1CC1	2.0
COC(=O)c1c(NC(=S)NCc2ccco2)sc2c1CCC2	34.4
COC(=O)CN1C=C(C(=O)OC)C(c2ccc(O)cc2)C(C(=O)OC)=C1	-10.9
COc1c(C(CC(C)C)OC(C)=O)ccc2c1C(=O)OCc1cc(C)cc(O)c1O2 (stereo unspecified)	20.9
CCOC(=O)c1c(NC(=O)c2nc3ncccn3n2)sc2c1CCCC2	23.1
C[C@@H]1CN([C@H](C)CO)C(=O)c2cccc(NC(=O)Nc3ccc(C(F)(F)F)cc3)c2O[C@H]1CN(C)Cc1ccc(Cl)c(Cl)c1	103.9*
COc1c(S(=O)(=O)n2c(C)nc3ccccc32)ccc(Cl)c1Cl	26.1
COc1ccc(OCc2ncc(-c3ccc4c(c3)OCCCO4)s2)cc1	6.4
CC(=O)c1cccc(NC(=O)CSc2nc(C)cc(=O)[nH]2)c1	-26.1
Cc1nc(SC(C)C(=O)Nc2ccc(Cl)cc2)n[nH]1 (stereo unspecified)	34.1
O=C(OCCO)c1cccc2c1-c1ccccc1C2=O	25.7
CNC[C@H]1Oc2ccc(NC(=O)Cc3cn(C)c4ccccc34)cc2CC(=O)N([C@@H](C)CO)C[C@H]1C	20.5
CC(C)OC(=O)C1C2C=CC3(CN(Cc4ccco4)C(=O)C13)O2 (stereo unspecified)	10.2
COc1ccc(NC(=O)Nc2ccc3c(c2)C(=O)N([C@H](C)CO)C[C@@H](C)[C@H](CN(C)C(=O)Nc2cccc4ccccc24)O3)cc1	-12.6
C[C@@H]1CN([C@H](C)CO)C(=O)c2cc(NS(=O)(=O)c3cn(C)cn3)ccc2O[C@@H]1CN(C)C(=O)Nc1ccccc1	-10.9
COC(=O)C1=CO[C@@H](OC2OC(O)C(O)C(O)C2CO)[C@H]2[C@@H]1C=CC21C=C([C@H](C)OC(=O)/C=C/c2ccc(OC3OC(CO)C(O)C(O)C3O)cc2)C(=O)O1 (stereo partly specified)	20.2
Cc1noc(C)c1NC(=O)Nc1cccc2c1O[C@H](CN(C)Cc1ccc(C(=O)Nc3ccccc3N)cc1)[C@@H](C)CN([C@H](C)CO)C2=O	51.1
COc1ccc2nc(Sc3c([N+](=O)[O-])nc(C)n3Cc3ccccc3)[nH]c2c1	102.3*
COc1ccc(C(=O)NCCCn2ccnc2)cc1[N+](=O)[O-]	-7.3
COc1ccc(CN(C)C[C@H]2OCCCC[C@@H](C)Oc3ccc(NC(=O)c4ccccc4)cc3C(=O)N([C@H](C)CO)C[C@@H]2C)cc1	13.6
CC(=O)c1ccc(OC(=O)CCCN2C(=O)c3ccccc3C2=O)cc1	-9.1
